BJeLR viability: kills HRASV12-expressing BJeLR cells. 0.17% of 300,000 active. inhibition, % (concentration not given with the values). AID 1554. BJeLR (HRASV12) viability, CellTiter-Glo ATP luminescence, 48 h; reference of the scale not given here;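 active = replicate mean above 50%; inconclusive = above 50% but judged a plate artefact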;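 note: 50 nL library stock added to about 25 µL; numbers are from one replicate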
Sa RN4220 lethal: S. aureus RN4220 growth inhibition | AID 1259311 | 0.33% of 330,000 active | inhibition, % (concentration not given with the values) | OD600, 16 h;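 active = z-score of -3 or lower and OD600 up to 0.18 on both plates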;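 note: plate controls were untreated cells for no effect and reference antibiotic for full effect; stock transfer was 100 nL into about 80 µL; one replicate is shown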
PrP UTR inh: suppresses PrP 5' UTR mRNA reporter expression. cell-based PrP 5' UTR mRNA reporter, plate reader. inhibition, % (no concentration beside the values). 0.35% of 340,000 active;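 active = every replicate at 50% or more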;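 note: 0 = median of the neutral control wells; tested in H4 reporter cells; numbers are from one replicate; inactives centre near -14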
ugtP null kill: compounds lethal to S. aureus RN4220 ugtP deletion mutant | OD600 growth, 16 h; some inactives read as strong as hits | 0.54% of 330,000 active | growth inhibition, % (concentration not given with the values) | AID 1259309;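 active = z-score under -3 and OD600 up to 0.15 on both plates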;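 note: plate controls were untreated wells for no effect and antibiotic for full effect; wells of about 80 µL received 100 nL stock; the first replicate is given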
Mtb hypoxia inh: inhibitors of hypoxia-regulated fluorescent reporter in Mycobacterium tuberculosis. 0.1% of 300,000 active. fluorescence inhibition, % (test concentration not listed). M. tuberculosis hypoxia-regulated fluorescent reporter, fluorescence;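 active = 35 to 45% if threefold the growth effect, above 45% if 1.5-fold the growth effect; inactive = the rest, general growth blockers included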;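 note: wells of about 50 µL received 100 nL stock; 0% = vehicle wells and 100% = reference inhibitor wells; whole bacteria with a GFP reporter of the hypoxia response; strong numbers were not always called active; many hits fall short of the cut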
Bead autofluor: compound fluorescence in toxin protease inhibitor counterscreen | compound autofluorescence counterscreen, microsphere flow cytometry; hits give high values | AID 624483 | 3.1% of 360,000 active | fluorescence intensity (test concentration not listed);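 active = at least 3 SD above the mean of all compounds, about 16000 in these data; inconclusive = too few beads counted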;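 note: 100 nL of 1 mM stock went into each well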
Mtb hypoxia inh growth: second read-out of Mtb hypoxia inh, no call of its own (marks repeat the call); growth inhibition, %; measured here: M. tuberculosis growth (absorbance);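 0% = vehicle and 100% = reference antibiotic; read after six days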
* hit, by the source's call; ? = inconclusive; . = not tested or not shown.

SMILES | BJeLR viability | Sa RN4220 lethal | PrP UTR inh | ugtP null kill | Mtb hypoxia inh | Mtb hypoxia inh growth | Bead autofluor
CN1CCN(C(=O)c2cc3c(ccc4ccccc43)oc2=O)CC1 | -7 | -2.9 | -12 | 1 | . | . | 4598
O=C(C1CCC(=O)N(C2CC2)C1)N1CCC(Oc2cccc(C(F)(F)F)c2)CC1 (configuration not stated) | 6 | 4.6 | -1 | 3 | 20 | 12 | 5493
COc1ccccc1-c1nnc(SCC(=O)Nc2ccc(N3CCOCC3)cc2)n1N | . | 4.7 | -6 | -7 | 4 | 2 | 4526
CN(C1CCCCC1)S(=O)(=O)c1ccc(S(=O)(=O)N2CCCC2)cc1 | 0 | 4.0 | -8 | 10 | -1 | -5 | 7587
N#Cc1c(N)nc2c(c1-c1ccc3c(c1)OCO3)CCc1ccccc1-2 | -14 | 6.2 | -10 | 13 | 11 | 6 | 2047
CC(=O)c1ccc(NC(=O)CSc2ccc3nnc(-c4cccnc4)n3n2)cc1 | -3 | -0.1 | -13 | -2 | 6 | -4 | 2275
CC(C)(C)c1ccc(C(=O)Nc2ccc(Oc3cccnc3)nc2)cc1 | 12 | -6.7 | -39 | -10 | -1 | -5 | 4387
CCOc1ccc2c(c1)sc1nc(C(=O)OC)cc(=O)n12 | 3 | 6.7 | -30 | -6 | 7 | 6 | .
CNC(=O)c1ccc(Nc2nnc(-c3ccc(C)c(S(=O)(=O)NCC4CCCO4)c3)c3ccccc23)cc1 (configuration not stated) | -7 | . | -13 | . | . | . | 2679
O=C(C1=CC(c2csc3ccccc23)CC(OCCCCO)O1)N1CCOCC1 (configuration not stated) | . | 7.3 | . | 8 | 1 | 9 | .
NC(=O)COc1ccccc1C(=O)O | 1 | 11 | -10 | 9 | 12 | 7 | 4344
O=C(Nc1ccccc1N1CCCCC1)c1ccc(F)cc1 | -7 | 1.0 | -3 | 9 | 18 | -1 | 5107
CC(C)C12CN3CCN(CC(C3)C1=NNC(=O)Nc1ccccc1)C2 | . | -0.2 | . | 1 | -3 | -3 | .
COc1ccccc1NC(=O)COC(=O)Cc1c[nH]c2ccccc12 | 11 | -2.8 | -26 | 5 | 16 | 5 | 4776
O=c1oc2cc(O)ccc2s1 | 1 | . | -15 | . | . | . | 6456
CC(=O)NN=C(C)c1ccc(NC(=O)c2csc(C)c2C)cc1 | . | 2.6 | . | 3 | -8 | -7 | .
CC1(C)CC(=NO)c2cc3c(nc2C1)CCCC3 | . | 18 | . | -2 | 15 | 11 | .
CCOC(=O)C1ON2CCCCC2C1(O)C(F)(F)F (configuration not stated) | -3 | 0.2 | -22 | 0 | 6 | 0 | 3179
CCN1C(=O)C2C(c3ccc(Cl)cc3)N3C(=O)CN(CCOC)C(=O)[C@@]3(Cc3ccccc3)C2C1=O (some centres not stated) | . | 5.2 | . | 3 | 3 | 6 | .
CC(C)C(=O)Nc1nnn(C)n1 | 5 | 3.4 | -3 | -6 | 10 | 10 | 22504*
COc1ccc(NC(=O)COc2cccc3c2OC(C)(C)C3)c(OC)c1 | . | 3.8 | -18 | -1 | 0 | 10 | ?
CCOc1cccc(-c2c(C(=O)NN=Cc3ccco3)nnn2-c2nonc2N)c1 | . | 3.0 | . | 2 | 19 | 11 | .
CN1C(=O)CC(NNC(=O)c2ccc(Cl)cc2)C1=O (configuration not stated) | 3 | -0.7 | -24 | -3 | -4 | 3 | 22298*
Cc1oc(C(C)(C)C)cc1C(=O)Nc1ccc(N2CCOCC2)cc1 | -8 | 5.3 | -17 | 0 | -4 | 7 | 4192
COc1ccc(CCCC(=O)N/N=C\c2cccs2)cc1 | 1 | . | -11 | . | . | . | 4708
CC(=O)c1cccc(S(=O)(=O)NCC2CCCCC2)c1 | 8 | 7.3 | -17 | 2 | 5 | 4 | 9224
Cc1cccc(OCC(=O)Nc2ccc(NC(=O)c3ccccc3)cc2)c1 | -5 | -0.6 | 5 | 4 | 6 | 2 | 5679
COc1ccc(NC(=O)CCN2C(=O)c3ccccc3C2=O)cc1 | -6 | 6.1 | -24 | 5 | 3 | 2 | 3419
COc1cc(-c2nc3cnccn3c2Nc2c(C)cccc2C)ccc1O | -2 | 0.7 | -20 | -9 | 6 | -4 | 7364
CCc1nn(CCCC(=O)NCc2ccccc2Br)c(=O)c2cc3occc3n12 | 10 | 1.2 | -27 | -3 | -7 | 3 | 5752
c1ccc(Cn2nnnc2C(c2cccs2)N2CCCCCC2)cc1 (configuration not stated) | 7 | 8.9 | -27 | 2 | 4 | -3 | 9791
Cc1onc(-c2ccccc2)c1C(=O)NCc1ccco1 | -4 | 9.0 | -32 | 5 | 8 | 6 | 2379
COCCn1c(SCC#N)nnc1-c1ccc([N+](=O)[O-])cc1 | -5 | 0.9 | -8 | -1 | 9 | -1 | 4761
O=[N+]([O-])c1ccccc1S(=O)(=O)N1CCCC(C(F)(F)F)C1 (configuration not stated) | -7 | 5.5 | 20 | 4 | 11 | 4 | .
Cc1ccccc1-n1c(Cn2c(=O)sc3ccccc32)nnc1SCC(=O)Nc1nccs1 | . | 3.9 | -19 | 4 | . | . | 5335
O=C(CCNC(=O)c1ccccc1Cl)NN=Cc1ccco1 | . | 2.8 | -10 | 3 | 4 | 9 | 3068
Cc1cccc(NC(=O)c2cc(S(=O)(=O)c3ccccc3)ccc2Cl)c1 | -1 | -3.0 | -26 | 1 | 8 | 1 | 3201
NCCCCC1CNC(=S)N1CCc1cccc(F)c1 (configuration not stated) | . | 1.3 | . | -10 | 22 | 22 | .
Cc1ccc(NC(=S)N(CCN2CCCCC2)Cc2ccco2)cc1C | 4 | 4.3 | -15 | 1 | 2 | 8 | 3358
Fc1cccc(-c2cc3nc4c(c(N5CCOCC5)n3n2)CCCC4)c1 | 0 | 2.9 | -69 | -11 | 3 | 2 | 7240

Sorted by number of heavy atoms (rising): some entries from above
SMILES | BJeLR viability | Sa RN4220 lethal | PrP UTR inh | ugtP null kill | Mtb hypoxia inh | Mtb hypoxia inh growth | Bead autofluor
O=C(CCNC(=O)c1ccccc1Cl)NN=Cc1ccco1 | . | 2.8 | -10 | 3 | 4 | 9 | 3068
CN1CCN(C(=O)c2cc3c(ccc4ccccc43)oc2=O)CC1 | -7 | -2.9 | -12 | 1 | . | . | 4598
CC(C)C12CN3CCN(CC(C3)C1=NNC(=O)Nc1ccccc1)C2 | . | -0.2 | . | 1 | -3 | -3 | .
CNC(=O)c1ccc(Nc2nnc(-c3ccc(C)c(S(=O)(=O)NCC4CCCO4)c3)c3ccccc23)cc1 (configuration not stated) | -7 | . | -13 | . | . | . | 2679

Remaining list, next part.
SMILES | BJeLR viability | Sa RN4220 lethal | PrP UTR inh | ugtP null kill | Mtb hypoxia inh | Mtb hypoxia inh growth | Bead autofluor
Cc1cccc(NC(=O)Cn2c(=O)n(CC3CCCO3)c(=O)c3ccccc32)c1 (configuration not stated) | -1 | -0.4 | 9 | -2 | -7 | 10 | 3959
CC(=O)c1ccc(Oc2cc(C(F)(F)F)cnc2C(N)=O)cc1 | -7 | 5.6 | -11 | 3 | 9 | 1 | 5157
CC(C)C1=C2CCCCC2NC(=O)N1 (configuration not stated) | 1 | 5.3 | -48 | 14 | 3 | 3 | 6717
COc1ccccc1P(=O)(Cc1ccccc1)c1ccccc1 (configuration not stated) | -4 | 4.4 | -21 | 9 | 15 | 8 | 3620
CN1CCN(NC(=S)Nc2ccccc2)CC1 | 0 | 5.0 | -8 | -3 | 8 | 15 | 3378
CCOc1ccc(-c2nc(CCl)cs2)cc1 | 2 | 0.9 | -48 | 2 | 1 | 5 | 4626
c1ccc2c(Nc3nc4c(s3)CCCC4)cccc2c1 | 7 | 4.8 | -35 | -5 | -78 | -9 | 8855
O=C(CNS(=O)(=O)c1ccc(Br)cc1)OCc1cc(=O)n2cc(Br)ccc2n1 | -11 | -0.3 | . | 2 | 4 | -7 | .
COc1ccc(C(CNC(=O)CSc2ccccc2C)N(C)C)cc1 (configuration not stated) | -17 | 4.5 | -6 | 4 | 19 | 11 | 3978
COc1ccc(CC(=O)NNC(=O)c2cc(C)[nH]n2)cc1 | 5 | . | 10 | . | . | . | 4480
CCOC(=O)C1CCCN(c2c(NCCCN3CCCC(C)C3)c(=O)c2=O)C1 (configuration not stated) | -6 | 1.0 | 13 | 11 | 7 | 6 | 4631
CC(C)CN(CC(C)C)C(=O)CN1C(=O)NC2(CCc3ccccc3C2)C1=O (configuration not stated) | -7 | 1.3 | -32 | 0 | 11 | 1 | 3003
Cc1ccc(S(=O)(=O)N2CCOCC2)cc1NC(=O)COC(=O)CNC(=O)c1ccccc1 | 8 | 9.3 | -17 | 0 | -2 | 3 | 10260
CCOC(=O)N1CCN(C(=O)COc2cccc3c2CCN(Cc2ccc(F)cc2)C3=O)CC1 | 10 | 6.0 | -9 | 14 | -4 | 3 | 2545
COc1cc(/C=N/NC(=O)CN2CCOCC2)ccc1OCc1ccccc1 | 1 | . | -56 | . | . | . | 2000
CN(C(=O)CN1CCC(NC(=O)C2CCCCC2)CC1)C1CCCCC1 | -3 | 6.6 | -35 | 2 | -2 | 0 | 23953*
CC12CN3CCN(CC(C3)C1=NNC(N)=O)C2 | . | -0.6 | . | 6 | 4 | 2 | .
COc1ccc(C)cc1N(CC(=O)Nc1ccc(S(=O)(=O)N2CCOCC2)cc1)S(C)(=O)=O | -9 | 2.0 | -13 | 3 | -5 | 3 | 3715
Cc1ccc2nc(N3CCC(C(=O)NC4CCCCC4)CC3)sc2c1 | -9 | 1.9 | -14 | 3 | -12 | -11 | 5067
COc1ccc2c(c1)CC[C@@H]1[C@@H]2CC[C@]2(C)C(=O)CC[C@@H]12 | -6 | . | -5 | . | . | . | 5737
Cc1ccc(N2CC(NS(=O)(=O)c3cccnc3)CC2=O)cc1C (configuration not stated) | 2 | -2.4 | 0 | -3 | -12 | 9 | 5757
CC(C)Oc1ccc(C2NC(=O)NC2=O)cc1 (configuration not stated) | -3 | 6.7 | -19 | 10 | 17 | 5 | 3262
CC1=C(C(=O)OC(C)C)C(C)C(C(=O)OC(C)C)=C(C)N1 | 0 | -1.1 | -14 | -10 | 4 | 6 | 9521
CCc1ccc(OCC2c3cc(OC)c(OC)cc3CCN2C(C)=O)cc1 (configuration not stated) | -20 | 1.3 | -2 | 0 | -4 | -3 | 5953
CC(=O)Nc1ccc2c(c1Br)Cc1ccccc1-2 | . | -4.5 | -60 | 26 | 9 | 13 | 3863
N/C(=N\O)c1ccccc1-n1cccc1 | 6 | . | -29 | . | . | . | 3708
O=C(CN1C(=O)CCSc2ccccc21)Nc1ccccc1 | 1 | 2.9 | -2 | -3 | 2 | 5 | 11204
CCNc1nc(NCC)nc(OCCNS(=O)(=O)c2cc(C)ccc2C)n1 | -9 | 4.0 | -16 | 0 | 2 | 7 | 21064*
O=C(NC[P+](=O)O)OCc1ccccc1 | -9 | 5.4 | -4 | 3 | 3 | -10 | 3306
COc1cccc(C=NNC(=O)c2ccc(CN3c4cccc5cccc(c45)S3(=O)=O)cc2)c1 | . | -1.3 | . | -8 | -8 | -5 | .
COCCCn1c2nc3ccccc3nc2c2c(=O)n(-c3ccccc3OC)cnc21 | -4 | 3.2 | -4 | 18 | . | . | 3730
Cc1ccc(S(=O)(=O)NCCNC(=O)CN2CCOCC2)cc1 | 3 | 3.1 | -1 | 2 | -4 | -13 | 2974
CCCc1cc(=O)n2[nH]c(C)nc2n1 | -9 | -0.5 | 3 | -7 | -8 | 5 | 24470*
Cc1csc(N/N=C/c2c(F)cccc2Cl)n1 | -15 | . | -49 | . | . | . | 3603
CCN(CC)S(=O)(=O)c1ccc(NC(=O)c2ccccc2N(C)S(C)(=O)=O)cc1 | -3 | 4.2 | -2 | 3 | 5 | -3 | 21922*
CCCCc1n(CC(=O)c2ccc(Cl)cc2)c2ccccc2[n+]1C | 11 | 2.8 | -15 | -2 | 18 | 7 | 2475
Oc1ccc(C23CC4CC(CC(C4)C2)C3)cc1O | 1 | . | -6 | . | . | . | 3517
Cc1coc2c(C)c3oc(=O)c(CCC(=O)N[C@@H](C)C(=O)N[C@@H](Cc4ccccc4)C(=O)O)c(C)c3cc12 | 3 | 8.3 | -20 | -10 | . | . | 5548
Cc1ccc(S(=O)(=O)NC(=O)c2ccccc2C)cc1 | -6 | 0.9 | -13 | -1 | 9 | -3 | 6271
COc1cc(C=NNC(=O)c2nc3ccccn3c2C)cc(OC)c1O | . | 9.4 | . | -1 | -2 | 1 | .
